Compound activity deposited in PubChem by several laboratories.
MT1-MMP act inh – inhibitors of human MT1-MMP activation. P50281. hit rate 0.061% among 360,000. GFP/RFP ratio change, % at 20 µM. AID 651647. HT1080 RFP-PRO-GFP cells, GFP/RFP ratio fluorescence, overnight; percent of plate control window, DMSO zero;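 active = GFP/RFP ratio change of at least 30% with cell ATP level not reduced by more than half and red fluorescence within 50% of control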; also: strong numbers were not always called active
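system = RFP-PRO-GFP reporter HT1080 cells | dosing = 20 µM single dose, 1% DMSO | timing = overnight cell settling, then overnight compound exposure, 37 °C, 5% CO2 | read-out basis = GFP/RFP fluorescence ratio | controls = DMSO and RFP-L50D-GFP cell wells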
CSC inhib – cancer stem cell inhibition; cancer stem cell-like cells viability, luminescence; inhibition, % at 7.5 µM; hit rate 1.1% among 300,000;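 active = mean at 75% or more and at least half the replicates too; inconclusive = mean and replicates disagree; tested in HMLE shEcad cells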;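 also: 0% = median of negative and 100% = median of positive control wells; the first replicate is given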
eIF4H FP inh – inhibitors of RNA binding by human eIF4H; Q15056; eIF4H fluorescence polarization binding assay; AID 2012; inhibition, % at 35 µM; hit rate 0.94% among 290,000;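 active = 50% or more with normal probe brightness, or confirmed in later tests; inconclusive = above 50% with abnormal brightness, or retests that disagree; inactive = below 50% or failed in later tests; about a fifth of its hits are not listed in these tables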;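 also: calls also rest on retests at 20 µM and on dose response follow-up; 0% = protein and probe with vehicle and 100% = probe without protein; strong numbers were not always called active; many hits fall short of the cut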
Rce1 inh – inhibitors of yeast Ras-converting enzyme; calls only; yeast membranes, quenched prenylated peptide cleavage fluorescence; hit rate 0.27% among 290,000;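 active = fall in fluorescence gain of 50% or more versus controls, with final raw signal at or below 3038400; inconclusive = same 50% fall but final raw signal above 3038400; inactive = fall in fluorescence gain under 50%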;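 also: plate controls were neutral control wells for no effect and wells lacking membranes for full effect; tested at 10 µM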
Target sequence (Q03530 whole entry, looked up): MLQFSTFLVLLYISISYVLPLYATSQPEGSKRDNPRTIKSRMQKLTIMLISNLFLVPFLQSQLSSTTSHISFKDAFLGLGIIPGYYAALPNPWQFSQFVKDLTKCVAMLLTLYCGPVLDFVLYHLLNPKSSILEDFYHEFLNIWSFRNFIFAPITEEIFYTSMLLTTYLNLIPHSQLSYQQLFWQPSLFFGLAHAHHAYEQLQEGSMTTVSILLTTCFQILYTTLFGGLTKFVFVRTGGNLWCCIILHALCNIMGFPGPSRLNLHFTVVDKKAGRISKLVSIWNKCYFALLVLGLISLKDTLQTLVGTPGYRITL
PABP FP inh – PABP-poly(A) binding inhibition; inhibition, % at 35 µM; hit rate 1% among 290,000; PABP-poly(A) RNA binding, fluorescence polarization;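 active = 50% or more with normal probe brightness, or confirmed in later tests; inconclusive = above 50% with abnormal brightness, or retests that disagree; inactive = below 50% or failed in later tests; about a fifth of its hits are not listed in these tables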;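 also: calls also rest on retests at 20 µM and on dose response follow-up; controls were probe without protein and protein plus probe with vehicle; some compounds called inactive have numbers as strong as hits; many hits fall short of the cut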
Target sequence (P11940 whole entry, looked up): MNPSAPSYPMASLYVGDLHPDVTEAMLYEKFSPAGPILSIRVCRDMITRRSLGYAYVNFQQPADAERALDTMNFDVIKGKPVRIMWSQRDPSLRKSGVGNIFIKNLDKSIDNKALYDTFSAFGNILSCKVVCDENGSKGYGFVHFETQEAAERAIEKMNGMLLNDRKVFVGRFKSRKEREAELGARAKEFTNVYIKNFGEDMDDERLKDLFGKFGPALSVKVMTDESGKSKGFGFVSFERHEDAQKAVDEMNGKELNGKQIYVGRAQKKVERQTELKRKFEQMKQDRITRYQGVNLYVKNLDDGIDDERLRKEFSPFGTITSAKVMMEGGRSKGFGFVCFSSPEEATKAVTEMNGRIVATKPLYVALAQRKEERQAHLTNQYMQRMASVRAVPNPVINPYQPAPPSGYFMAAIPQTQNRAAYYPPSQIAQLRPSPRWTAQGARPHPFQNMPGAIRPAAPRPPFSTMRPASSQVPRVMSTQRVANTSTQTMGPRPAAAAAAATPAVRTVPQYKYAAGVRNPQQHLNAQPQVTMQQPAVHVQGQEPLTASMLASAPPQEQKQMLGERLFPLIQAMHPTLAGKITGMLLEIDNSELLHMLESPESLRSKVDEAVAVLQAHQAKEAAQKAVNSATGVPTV
Yeast UUG start – alters start codon recognition fidelity in yeast; S. cerevisiae UUG-firefly luciferase reporter, luminescence/redox ratio; activity score, % at 18.7 µM; hit rate 0.13% among 350,000;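 active = replicate mean at a twofold rise or more, about +100% in these data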;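 also: firefly luciferase made from a UUG start codon reports start codon fidelity; reporter light over untreated wells divided by growth signal over untreated wells; some hits fall short of that in this replicate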
Env fusion inh – inhibitors of HIV Env-mediated cell fusion; HeLa-JRFL Env/CEM21 cell fusion, luciferase; inhibition, % at 12.3 µM; hit rate 1.1% among 360,000; AID 651610;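 active = mean replicate inhibition score of at least 50 and every replicate individually at or above 50; inconclusive = only one of the two criteria met; inactive = mean below 50 and not all replicates reaching 50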;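 also: 0% = plate neutral controls and 100% = maraviroc near 300 nM; one replicate is shown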
eIF4H FP inh retest – also measured in eIF4H FP inh; calls as there; inhibition, %; compound at 20 µM; confirmation average;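 mean of two retest wells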
PABP FP inh retest – also measured in PABP FP inh; calls as there; inhibition, %; compound at 20 µM; confirmation repeats;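 mean of two retest wells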
MT1-MMP act inh RFP – second read-out of MT1-MMP act inh, no call of its own (marks repeat the call); RFP signal change, %; measured here: RFP expression control read;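 0 = vehicle wells; hits needed this value within 50% of zero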
The depositor's hits bear a star; i = inactive; ? = inconclusive; nt = not tested or not shown. Only part of the results is shown (hit frequency here may not be typical).

SMILES | MT1-MMP act inh | MT1-MMP act inh RFP | CSC inhib | eIF4H FP inh | Rce1 inh | PABP FP inh | Yeast UUG start | Env fusion inh | others
CCOc1ccc(C(=O)NC2C(=O)N3C(C(=O)O)=C(COC(C)=O)CSC23)cc1OCC (stereo not given) | 0 | 4 | nt | nt | nt | nt | -8 | -4
CC(=O)c1ccc(NC(=O)COC(=O)CCc2ccc(S(=O)(=O)N3CCOCC3)cc2)cc1 | 4 | 4 | 6 | 0 | i | 8 | -11 | -9
CN(c1nc2c(c(=O)n(C)c(=O)n2C)n1CC(=O)c1ccccc1)C1CCCCC1 | -2 | -2 | -21 | -11 | i | -5 | 4 | nt
Cc1cc(C(=O)OC(C(=O)Nc2cccc(C(F)(F)F)c2)c2ccccc2)c(C)o1 (stereo not given) | -4 | -4 | -21 | 1 | i | -12 | nt | nt
COC(=O)c1ccc(OCCOc2ccccc2C)cc1 | 0 | 1 | -12 | 9 | i | 4 | -12 | -5
O=C(COC(=O)c1ccc([N+](=O)[O-])o1)Nc1ccc(Br)cc1F | 2 | 1 | 18 | nt | nt | nt | -35 | nt
COC(=O)Cn1cc(C#N)c2ccccc21 | 2 | 7 | -13 | 2 | i | -10 | -14 | nt
CC(=O)N1N=C(c2ccc(C)cc2)OC1c1cccnc1 (stereo not given) | 1 | 1 | -7 | 6 | i | 2 | nt | -6
Fc1ccc(NC(=S)SCc2ccc3c(c2)OCO3)cc1F | -2 | -1 | nt | nt | nt | nt | -8 | -2
CN(C(=O)c1cccc(N2C(=O)C3C4C=CC(C4)C3C2=O)c1)C1CCCCC1 (stereo not given) | -3 | -5 | -8 | -9 | i | -6 | 2 | 6
COCC(=O)NC1(c2nnnn2CCOC(=O)Nc2ccc(Cl)cc2)CCCCC1 | 1 | 3 | -1 | 3 | i | -4 | nt | 8
Cc1oc(-c2ccccc2F)nc1CS(=O)CC(=O)NC1CCCC1 (stereo not given) | 1 | 2 | -8 | -2 | i | -5 | nt | 3
CCOC(=O)C1CCN(C(=S)NC2CCCC2)CC1 | 3 | 6 | -9 | -8 | i | 5 | nt | 11
Cc1cc(C)cc(NC(=O)CCCCCN2C(=O)[C@@H]3Cc4ccccc4CN3C2=O)c1 | 1 | 2 | 5 | -12 | i | -1 | 3 | 1
CC(=O)Nc1ccc2c(c1)Cc1c-2cc(Cl)c(NC(C)=O)c1Cl | 3 | -3 | nt | nt | nt | nt | -20 | -2
COc1ccc(CNC(=S)NC2CCCCC2)cc1 | 2 | -1 | -14 | -6 | i | -7 | -29 | -5
O=C(CCn1nc(-c2ccccc2)ccc1=O)N1CCN(c2ccccn2)CC1 | -2 | 0 | nt | 5 | i | 9 | 0 | 30
NC(=O)c1cnn2c(-c3ccc(Cl)cc3Cl)ccnc12 | -1 | -2 | -11 | -3 | i | 0 | 5 | nt
CC(=O)Nc1ccc(NC(=O)CN2C(=O)COc3ccc(S(=O)(=O)N4CCCCC4)cc32)cc1 | 0 | 2 | -12 | -3 | i | 0 | -10 | -2
Cc1cc(-c2nnco2)c(C)n1-c1ccc(F)cc1 | -4 | 0 | 5 | 3 | i | 4 | 2 | nt
O=C(O)c1cccc(N2C(=O)Nc3ccccc3N2O)c1 | 1 | 4 | -5 | 1 | i | -7 | -1 | 9
O=[N+]([O-])c1cccc(/C(=N/N=C/c2ccccc2Br)C23CN4CN(CN(C4)C2)C3)c1 | 1 | -2 | -1 | 1 | i | 0 | -5 | -70
CC(C)CNS(=O)(=O)c1cc(C(=O)N2CCOCC2)c(Cl)cc1Cl | -1 | 1 | -9 | 6 | i | -3 | -8 | -15
COc1ccc(NC(=O)c2ccc3c(c2)OCO3)cc1 | 2 | -1 | -3 | -4 | nt | -13 | -19 | -28
CCOc1cc(/C=N/NC(=O)CSc2nncn2C)ccc1OCC(N)=O | -3 | -1 | -6 | -7 | i | 12 | nt | 0

Part of the list above in order of molar mass, rising:
SMILES | MT1-MMP act inh | MT1-MMP act inh RFP | CSC inhib | eIF4H FP inh | Rce1 inh | PABP FP inh | Yeast UUG start | Env fusion inh | others
CCOC(=O)C1CCN(C(=S)NC2CCCC2)CC1 | 3 | 6 | -9 | -8 | i | 5 | nt | 11
O=C(O)c1cccc(N2C(=O)Nc3ccccc3N2O)c1 | 1 | 4 | -5 | 1 | i | -7 | -1 | 9
CC(C)CNS(=O)(=O)c1cc(C(=O)N2CCOCC2)c(Cl)cc1Cl | -1 | 1 | -9 | 6 | i | -3 | -8 | -15
CCOc1ccc(C(=O)NC2C(=O)N3C(C(=O)O)=C(COC(C)=O)CSC23)cc1OCC (stereo not given) | 0 | 4 | nt | nt | nt | nt | -8 | -4
O=[N+]([O-])c1cccc(/C(=N/N=C/c2ccccc2Br)C23CN4CN(CN(C4)C2)C3)c1 | 1 | -2 | -1 | 1 | i | 0 | -5 | -70
CC(=O)Nc1ccc(NC(=O)CN2C(=O)COc3ccc(S(=O)(=O)N4CCCCC4)cc32)cc1 | 0 | 2 | -12 | -3 | i | 0 | -10 | -2

Entries above containing a furan ring, fused or not:
SMILES | MT1-MMP act inh | MT1-MMP act inh RFP | CSC inhib | eIF4H FP inh | Rce1 inh | PABP FP inh | Yeast UUG start | Env fusion inh | others
Cc1cc(C(=O)OC(C(=O)Nc2cccc(C(F)(F)F)c2)c2ccccc2)c(C)o1 (stereo not given) | -4 | -4 | -21 | 1 | i | -12 | nt | nt
O=C(COC(=O)c1ccc([N+](=O)[O-])o1)Nc1ccc(Br)cc1F | 2 | 1 | 18 | nt | nt | nt | -35 | nt

Further structures:
SMILES | MT1-MMP act inh | MT1-MMP act inh RFP | CSC inhib | eIF4H FP inh | Rce1 inh | PABP FP inh | Yeast UUG start | Env fusion inh | others
O=C(NCCCN1CCCC1=O)c1ccc(Cl)c(Cl)c1 | 2 | 4 | -11 | 5 | nt | 9 | -9 | -6
COc1ccc2c(Cl)c(C(=O)N/N=C/c3ccncc3)sc2c1 | -2 | -1 | 13 | 9 | i | 4 | -5 | -6
CCC(C)[C@H](NC(=O)N1CC(=O)Nc2ccccc21)C(=O)NC(C)CCc1ccccc1 (stereo not given in full) | 2 | 3 | 1 | 0 | i | -4 | nt | 0
CC(=O)Nc1ccc(NC(=O)CN2CCN(c3cccc(C(F)(F)F)c3)CC2)cc1 | 3 | -1 | -6 | -6 | i | -12 | -6 | nt
C=CCN(CC=C)C(=S)Nc1ccc2nsnc2c1 | -7 | 7 | 1 | 13 | i | -6 | 34 | 17
Cc1ccc2oc(=O)c(-c3ccc(O)cc3)c(C)c2c1 | 6 | 0 | 1 | nt | nt | nt | -4 | -8
CCOC(=O)CCCCCC(=O)Nc1ccc2c(c1)C(=O)N([C@H](C)CO)C[C@H](C)[C@H](CN(C)C(=O)C1CCCCC1)OCCCC[C@@H](C)O2 | -2 | 0 | nt | nt | nt | nt | 21 | 21
Clc1ccc2nc(C3CCCCC3)c(Cc3ccsc3)n2c1 | -9 | -10 | nt | nt | nt | nt | -3 | -16
CCn1cc(C(=O)NC2CCCCCC2)c2cc(OC)c(OC)cc2c1=O | 2 | 1 | 9 | 10 | i | -10 | nt | -12
CSc1nsc(SCC(=O)Nc2ccc(C(=O)O)cc2)n1 | -1 | 5 | -7 | -11 | i | 12 | -10 | -4
COc1ccc(S(=O)(=O)N2CCOCC2)cc1NC(=O)Cn1nnc2ccccc2c1=O | 2 | -3 | -9 | 4 | i | -11 | 8 | -3
CS(=O)(=O)c1ccc(C(=O)OCc2nnc(-c3ccc(Cl)cc3)o2)cc1[N+](=O)[O-] | -2 | -4 | 48 | 15 | i | -2 | -15 | nt
O=C(CSc1nnc2ccccn12)NC(=O)NC1CCCC1 | nt | nt | 18 | 2 | i | -22 | -8 | nt
O=C(Cn1ccc(NC(=O)OCc2ccccc2)nc1=O)NCc1ccc2[nH]ccc2c1 | 7 | 2 | 4 | nt | nt | nt | -15 | nt
Cc1cc2c(cc1S(=O)(=O)NCC(C)c1ccccc1)n(C)c(=O)c(=O)n2C (stereo not given) | 0 | 1 | nt | -7 | i | 8 | 5 | -15
C/C(CCc1ccc2c(c1)OCO2)=N\N=C1\NC(=O)CC(C(=O)Nc2ccc(C(=O)O)cc2)S1 (stereo not given) | 1 | 3 | nt | nt | nt | nt | -18 | 3
Cc1cccc(-c2noc(CNC(=O)COc3ccccc3C)n2)c1 | -8 | -2 | -10 | 1 | i | -5 | 1 | -1
COc1ccccc1-c1ccc(SCc2ccc(F)cc2)nn1 | -1 | -2 | -13 | -2 | i | -4 | nt | 21
CCCC1S/C(=N/N=C/c2ccc(C)cc2)N(Cc2ccc(OC)cc2)C1=O (stereo not given) | -1 | -1 | 0 | -3 | i | -9 | -14 | ?
CCCS(=O)(=O)NC(=O)C1(C)CCN(C(=O)c2cc(C)on2)C1 (stereo not given) | -2 | 1 | nt | nt | nt | nt | -21 | -42
CC12C(=O)N(c3ccc(OC(=O)c4ccco4)cc3)C(=O)C1C1c3ccccc3C2c2ccccc21 (stereo not given) | -4 | -3 | -1 | -1 | i | 6 | nt | -6
C/C(=N\O)c1ccc2c(c1)CC(C)O2 (stereo not given) | 4 | 0 | 0 | -7 | i | 5 | nt | 7
CCC(C)NC(=O)C1CCN(S(=O)(=O)N2CCOCC2)CC1 (stereo not given) | -1 | 2 | 1 | -14 | i | 57 | -10 | -4 | eIF4H FP inh retest=-8;PABP FP inh retest=8
Cc1ccc(NC(=O)NC(=O)CN2CCC(C(N)=O)CC2)c(C)c1 | -2 | 3 | -1 | nt | nt | nt | -13 | nt
CC[C@@]1(C(=O)OC)N[C@H](CN(C)C(=O)Nc2ccc(C)cc2)[C@@H]2C(=O)N(C)C(=O)[C@@H]21 | 2 | 6 | nt | nt | nt | nt | -14 | -16
The results go on.
SMILES | MT1-MMP act inh | MT1-MMP act inh RFP | CSC inhib | eIF4H FP inh | Rce1 inh | PABP FP inh | Yeast UUG start | Env fusion inh | others
O=C(CNC(=O)c1ccccc1)NCc1ccc(Cl)cc1 | 1 | 0 | -10 | -1 | i | -6 | 2 | 23
Oc1ccccc1C1Nc2cccc3cccc(c23)N1 | 15 | 4 | 0 | 95* | i | 72* | -6 | nt | eIF4H FP inh retest=98*;PABP FP inh retest=91*
CCN(CC)C(=O)C1CCCN(Cc2ccccc2F)C1 (stereo not given) | 1 | 5 | -7 | 26 | i | 23 | -11 | 37
CC(C)CCNC(=O)C1CCN(S(=O)(=O)c2ccc(-n3cnnn3)cc2)CC1 | 5 | 3 | 46 | -6 | i | 10 | -5 | -21
CCS(=O)(=O)N1CCC(c2nc3ccccc3[nH]2)CC1 | 0 | 1 | 2 | 3 | i | -1 | -15 | -1
Cc1ccc(N(CC(=O)N2CCN(C3CCCCC3)CC2)S(=O)(=O)c2cccnc2)cc1 | 2 | 3 | 20 | -2 | nt | 6 | nt | -44
Cc1nc(N)nc(C)c1Cc1ccccc1 | 4 | -1 | 1 | -2 | i | 2 | -7 | -70
CCOC(=O)COn1c(=O)c(-c2ccc(Br)cc2)[n+]([O-])c2ccccc21 | -2 | 2 | -9 | -1 | i | 6 | -11 | -12
OCCC1CN(Cc2cnc(-c3ccccc3)s2)CCN1Cc1ccccc1 (stereo not given) | 3 | 3 | 23 | -7 | nt | 4 | 8 | 10
CN(C)CCNc1nc2sc3c(c2c(=O)n1-c1ccc(F)cc1)CCCCC3 | 7 | 3 | 5 | 18 | i | 8 | nt | 15
N#Cc1nc(-c2ccccc2F)oc1N1CCCCC1 | -3 | -2 | -7 | -10 | i | -5 | -6 | -15
